Screening results deposited in PubChem BioAssay by several laboratories.
LANA-H2B inh – blockers of LANA interaction with H2A/H2B – biochemical, FP readout, HTS, primary screen. inhibition, % (concentration not given with the values). 320,000 tested, 0.6% active. cell-free LANA-H2A/H2B peptide, fluorescence polarization. AID 2629, 2010; in the data active means inhibition mostly above about 10%, no sharp cut-off; inactive means mostly below about 6.7%;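 further: stock transfer was 7.5 nL into about 10 µL; 0% = median of vehicle wells and 100% = median of positive control wells; one replicate is shown; the record names a cut of 25% in any replicate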
Target sequence (Q9QR71 whole entry, looked up): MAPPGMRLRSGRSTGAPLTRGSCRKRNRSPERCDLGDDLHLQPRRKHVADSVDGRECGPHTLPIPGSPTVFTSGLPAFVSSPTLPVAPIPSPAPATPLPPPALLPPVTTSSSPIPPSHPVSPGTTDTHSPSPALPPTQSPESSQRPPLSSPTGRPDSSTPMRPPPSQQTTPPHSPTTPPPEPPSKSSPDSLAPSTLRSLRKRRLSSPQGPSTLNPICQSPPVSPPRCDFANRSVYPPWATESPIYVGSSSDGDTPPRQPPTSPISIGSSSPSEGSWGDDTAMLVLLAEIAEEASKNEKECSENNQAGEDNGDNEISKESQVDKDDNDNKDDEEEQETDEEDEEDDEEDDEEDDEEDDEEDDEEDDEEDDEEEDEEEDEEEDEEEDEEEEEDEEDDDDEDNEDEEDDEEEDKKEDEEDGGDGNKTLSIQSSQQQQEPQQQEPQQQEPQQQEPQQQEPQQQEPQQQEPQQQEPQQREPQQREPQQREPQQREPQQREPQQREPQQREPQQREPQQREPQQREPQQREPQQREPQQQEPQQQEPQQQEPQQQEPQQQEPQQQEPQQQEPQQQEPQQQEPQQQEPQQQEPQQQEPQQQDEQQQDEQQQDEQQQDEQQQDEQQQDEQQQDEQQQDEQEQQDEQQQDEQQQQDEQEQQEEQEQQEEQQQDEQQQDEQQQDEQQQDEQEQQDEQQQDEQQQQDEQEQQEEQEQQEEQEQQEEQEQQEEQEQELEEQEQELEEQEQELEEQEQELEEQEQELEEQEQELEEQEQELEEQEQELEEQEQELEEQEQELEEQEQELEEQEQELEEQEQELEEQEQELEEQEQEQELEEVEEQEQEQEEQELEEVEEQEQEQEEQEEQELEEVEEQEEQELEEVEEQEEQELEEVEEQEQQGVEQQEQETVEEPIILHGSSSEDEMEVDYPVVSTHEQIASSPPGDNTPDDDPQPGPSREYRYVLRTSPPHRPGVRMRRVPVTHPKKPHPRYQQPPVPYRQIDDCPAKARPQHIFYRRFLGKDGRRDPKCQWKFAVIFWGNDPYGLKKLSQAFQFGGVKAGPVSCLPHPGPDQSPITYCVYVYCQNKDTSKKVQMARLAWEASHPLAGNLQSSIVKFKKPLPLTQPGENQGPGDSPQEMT
UCH37 inh – inhibitors of human UCH37 deubiquitinase, primary screen, biochemical, Ub-AMC cleavage, fluorescence | Ubiquitin carboxyl-terminal hydrolase isozyme L5 (Homo sapiens), Q9Y5K5 | purified proteasome/UCH37 | inhibition, % (no concentration beside the values) | 330,000 tested, 0.33% active | AID 588478, 2011;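 active means mean of two replicates above 20%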;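 further: 0% = compound-free wells with enzyme and 100% = wells lacking proteasome; stock transfer was 100 nL into about 20 µL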
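Material: Human UCH37 enzyme supplied as purified proteasome complex | Schedule: 30 min preincubation with enzyme, 25 min cleavage at room temperature | Detection: AMC fluorescence 355/460 nm | Measure: % inhibition of Ub-AMC cleavage fluorescence | Controls: Wells without proteasome as full block, compound-free enzyme plus substrate as uninhibited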
T cruzi repl – inhibitors of intracellular T. cruzi growth, primary screen, luminescence, NIH3T3 host cells. T. cruzi beta-gal in NIH3T3, 90 h. inhibition, % (no concentration beside the values). 300,000 tested, 1.4% active. AID 1885, 2009;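 active means mean inhibition across valid replicates above about 55%, limit read from the data; inconclusive means mean below that limit but half or more replicates reach it; inactive means mean below it, under half of replicates reach it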;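 further: signal also drops with host cell toxicity which is not excluded here; 0% = plate median of DMSO wells and 100% = zero luminescence signal; higher percent means less beta-gal luminescence so fewer parasites; stock transfer was 50 nL into about 50 µL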
A1 inh – caspase 3/7 activation in MEF A1-2A-BIM cells, primary screen, A1 inhibitor project, cell-based, luminescence, HTS; Caspase-Glo 3/7 luminescence, 3 h; percent of clofoctol response, vehicle zero; caspase activation, % (test concentration not listed); 330,000 tested, 0.066% active; AID 2462, 2010;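 active means over half of replicate activation scores above 10%, or exactly half above 10 with the replicate mean above 10; inconclusive means replicate mean below 10 yet half the replicates above 10; inactive means over half of replicates below 10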;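 further: wells of about 30 µL received 50 nL stock; many hits fall short of the cut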
B2AR ag – beta2AR agonists driving receptor internalization, primary screen, cell-based, FAP fluorogen, flow cytometry; Beta-2 adrenergic receptor (Homo sapiens), P07550; Am2.2-beta2AR cells; reference of the scale not given here; response, % (concentration not given with the values); 340,000 tested, 0.43% active; AID 504454, 2011;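 active means response above a set limit, near 3 SD of response in nonfluorescent compounds, cut at about 42% in these data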;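 further: stock transfer was 100 nL into about 11 µL; a reference agonist was the positive control; negative values mostly stem from fluorescent compounds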
Beta apoptosis – inhibitors of cytokine-induced beta cell apoptosis, primary screen, luminescence; INS-1E cytokine-induced death, ATP luminescence, 48 h; percent of positive-control rescue, neutral wells zero; protection from apoptosis, % (no concentration beside the values); 300,000 tested, 0.8% active; AID 435005, 2010;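 active means all replicates at 75% or more, or half of them and the mean; inconclusive means half reach 75% but not the mean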;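 further: 0% = cytokine-treated negative control wells and 100% = positive control rescue; higher means more ATP so stronger rescue from cytokine killing; wells of about 40 µL received 100 nL stock; the first replicate is given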
Calb FLC – C. albicans growth inhibition with fluconazole, primary screen, CaCi-2 strain, Alamar Blue fluorescence | growth inhibition, % (no concentration beside the values) | AID 1979, 2009 | 300,000 tested, 0.57% active | C. albicans CaCi-2 (fluconazole-resistant clinical isolate) + fluconazole, 48 h;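 active means most replicates above 75%; inconclusive means exactly half above 75%; inactive means most below 75%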;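 further: all wells also contain fluconazole at 8 µg/ml as a sub-toxic cotreatment; 0% = median of DMSO wells and 100% = median of geldanamycin control wells; wells of about 8 µL received 7.5 nL stock; the first replicate is given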
RanGTP-Impb inh – inhibitors of RanGTP-importin-beta interaction, primary screen, biochemical, FRET, CFP-Ran, YFP-importin-beta, homogeneous | Ran GTPase (GTP-bound) - importin-beta complex | cell-free CFP-Ran/YFP-importin-beta FRET ratio | inhibition, % (no concentration beside the values) | 300,000 tested, 1.1% active | AID 2216, 2009;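 active means most replicates above 15%; inconclusive means exactly half above 15%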;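 further: 0% = DMSO wells and 100% = Ran loaded with GDP instead of GTP; wells of about 40 µL received 100 nL stock; the first replicate is given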
Active calls of the source: *; i = inactive; ? = inconclusive; . = no result given.

Results follow in this order: A1 inh, UCH37 inh, Calb FLC, LANA-H2B inh, T cruzi repl, RanGTP-Impb inh, B2AR ag, Beta apoptosis
> O=C(Nc1ccc(S(=O)(=O)Nc2nccs2)cc1)c1c(F)c(F)c(F)c(F)c1F
 : 1.1, 4.6, 0.0, -3.1, 3.3, -0.2, 0.0, -1.7
> COC(=O)c1ccc(S(=O)(=O)N2CCN(C)CC2)n1C
 : 1.0, 2.8, -10.2, -6.3, -2.2, -3.2, 4.0, -1.2
> COc1ccccc1CN1CCN(Cc2nc(-c3ccc(C)cc3)oc2C)CC1
 : -0.4, -1.9, 3.5, 0.2, 4.9, -0.2, -1.0, .
> COc1ccc(N(CC(=O)Nc2ccccc2OC)S(=O)(=O)c2ccccc2)cc1Cl
 : -0.2, 4.3, 4.7, -1.4, 22.4, -1.9, -3.6, 4.0
> Cc1ccc(CNC(=O)CSc2nc3[nH]ncc3c(=O)[nH]2)cc1
 : 2.1, 1.6, -15.8, -2.4, -9.8, 4.9, -2.7, 13.7
> Cc1ccc2c(C)c(C(=O)Nc3c(C)n(C)n(-c4ccccc4)c3=O)oc2c1C
 : 0.1, 4.4, 7.6, -1.9, -10.8, -3.8, 7.7, 1.1
> COc1ccc(N2CCN(c3nccs3)CC2)cc1
 : -1.3, 5.1, -11.3, 1.2, -2.2, -0.7, -5.1, -8.3
> COc1ccc(Cl)cc1NC(=O)CSc1nc2ccsc2c(=O)n1CC1CCC(C(=O)O)CC1 (stereo not given)
 : 0.8, 3.5, 3.7, -1.5, -34.2, 2.6, 2.4, 4.2
> CCOC(CC(=O)NNC(=O)c1c(-c2c(Cl)cccc2Cl)noc1C)OCC
 : 0.6, 1.2, 2.8, -4.5, -11.2, -2.0, -1.8, -3.9
> O=C(NNC(=O)c1cccnc1)Nc1ccc(Cl)c(Cl)c1
 : -0.5, 4.0, -0.7, 1.4, -4.0, -0.5, -10.4, -0.8
> COc1ccc(NC(=O)CN(C)C(=O)c2ccccc2CCc2ccccc2)cc1
 : -0.2, 1.8, -1.2, -0.3, 3.5, 2.3, 2.9, 2.8
> Cc1ccc(N(CC(O)CN2CCCC2)S(=O)(=O)c2ccccc2)cc1 (stereo not given)
 : 0.1, 1.6, -1.2, -1.7, -22.9, 1.4, 1.9, .
> COc1ccc(-c2nn(-c3ccccc3)cc2/C=N/O)cc1
 : 0.3, ., -20.6, -3.0, 18.9, 1.4, -5.3, -15.1
> COC(=O)C1=C(C)N=C2SC(C#N)=C(N)N2C1c1ccc(OCc2ccccc2)cc1 (stereo not given)
 : 0.5, -6.2, 8.0, 6.4, 19.2, 24.6*, 1.3, 2.7
> O=S(=O)(c1ccc(SCc2cccc(Cl)c2)nc1)N1CCCC1
 : 0.8, 2.4, ., 0.0, ., ., -1.1, -1.6
> Cc1cc(NC(=O)C(C)SCC(=O)N(C)CC(=O)Nc2ccc(F)cc2)no1 (stereo not given)
 : -0.2, -1.5, ., 4.5, 6.4, -4.2, -7.1, -0.3
> CCC1(c2ccccc2)NC(=O)N(CC(=O)Nc2ccc3c(C)cc(=O)oc3c2)C1=O (stereo not given)
 : 0.1, i, 2.9, -5.6, -18.1, -2.2, 20.6, .
> CSc1cccc(NC(=O)c2cc(S(=O)(=O)N3CCCCC3)c[nH]2)c1
 : 0.2, -2.4, -4.5, -4.0, -10.3, 5.3, -2.1, 0.7
> O=C(NC(Cc1ccccc1)C(=O)N1CCCC(C(F)(F)F)C1)c1ccccc1 (stereo not given)
 : -0.8, 6.1, 1.3, -6.7, -16.5, -0.9, 0.6, 9.8
> Cc1cccc(OCC(=O)NNC(=O)c2cc(S(=O)(=O)N(C)C)ccc2N2CCCC2)c1
 : 0.9, -20.7, ., 0.8, ., ., 1.3, -6.2
> CC(Sc1nnc(-c2ccco2)n1N)C(=O)NC1CCCCC1C (stereo not given)
 : 1.4, 0.8, ., 0.6, ., ., -4.6, 6.0
> O=C(CN1C(=O)NC2(CCCCCC2)C1=O)N1CCN(c2ccccc2)CC1
 : 0.1, 0.4, ., -3.1, ., ., 9.4, -6.6
> COc1ccccc1-n1cnnc1SCC(=O)N1CCOCC1
 : 1.0, 3.5, -6.7, -0.2, -2.3, -2.9, 5.3, -8.9
> O=[N+]([O-])c1ccc(N2CCN(C(=S)Nc3ccc(F)cc3F)CC2)cc1
 : -0.1, 3.8, -23.4, -2.1, 15.3, -13.0, 8.6, -3.2
> CCC(=O)Nc1cc(Cl)ccc1C(=O)O
 : -1.2, 0.7, 13.3, -6.0, -37.8, -2.7, 2.0, .
> COc1ccc(OCC(=O)Nc2cc(C)c(Cl)cc2OC)c([N+](=O)[O-])c1
 : 0.6, 1.6, -9.6, 3.0, -1.0, -0.6, 19.7, .
> CC(=O)Nc1cc[n+](C(C)C(=O)c2ccc(Cl)cc2)cc1 (stereo not given)
 : 0.6, 1.1, 10.0, ., -3.3, 5.0, -4.9, 3.2
> COc1cccc(-n2cnnn2)c1
 : 0.0, 0.6, 10.2, 2.5, -2.2, 1.5, 7.7, 2.1
> CCn1c(SCC(=O)Nc2oc(C)c3c(C)n[nH]c(=O)c23)nc2sc(C)c(C)c2c1=O
 : 0.5, 5.1, ., 3.5, 11.1, -2.7, 4.5, -0.6
> CCOc1ccccc1NC(=O)CSc1nnnn1Cc1ccccc1
 : 0.2, 3.3, -4.4, -4.9, 3.5, 4.0, -4.8, -4.8
> COc1c(C)cccc1C(=O)Nc1ccc(N2CCN(S(C)(=O)=O)CC2)cc1
 : 0.4, 0.9, 18.0, -4.8, -12.9, -6.1, 3.9, 1.2
> Cc1cc(C)cc(N(CCC#N)C(=O)CSC2=Nc3ccccc3C3CC=NN23)c1 (stereo not given)
 : 0.8, 3.0, -0.7, 5.2, 16.5, 3.3, 12.2, 2.0
> O=C(CN1c2ccccc2Sc2ccccc21)N/N=C/c1ccccc1
 : 0.8, ., -2.7, 1.8, 20.3, 0.7, 3.3, -0.2
> COc1cccc(/C=N/NC(=O)c2nc(-c3ccccc3)cc(-c3ccccc3)n2)c1O
 : 0.0, ., 113.7*, 6.1, 5.9, 0.1, -3.2, 8.2
> COc1ccc(C(=O)NNC2=NCCCCC2)cc1
 : 0.2, 0.1, -10.1, -2.8, -8.9, -0.9, -2.7, 4.9
> CC(C)N(Cc1ccccc1)C(=O)C1CCCN(c2ncnc3c2nc2n3CCCCC2)C1 (stereo not given)
 : 0.1, 6.1, -2.9, 3.2, 4.9, -5.0, -1.5, -3.1
> CCOC(=O)c1c(NC(C)=O)sc2c1CCC(C=O)=C2Sc1ccccc1
 : 0.1, 3.6, 19.4, 1.4, 4.5, 0.6, -140.2, -2.3
> Cc1cc(NC(=O)c2cn(C3CCCCC3)c(=O)c3c2c2ccccc2n3C)no1
 : 0.0, -8.0, 30.8, -4.8, 25.5, 1.3, 5.7, 17.9
> O=C(Nc1nccs1)c1ccc(-c2cccc([N+](=O)[O-])c2)o1
 : 0.4, 4.7, 11.7, -1.0, 19.3, ?, -10.4, .
> CC(C)Cn1c(/C=C/c2ccccc2)nc2ccccc21
 : -0.8, -304.5, 41.5, -1.1, -2.1, ?, -14.5, 6.2
> COCCNC(=O)C1CC(c2ccc(F)cc2)=NO1 (stereo not given)
 : 1.2, 3.2, 18.1, 5.2, -7.5, 6.0, -0.3, 0.9
> Cc1ccc(C)c(NC(=O)C2CC(=O)N(C(C)C)C2)c1 (stereo not given)
 : 0.1, 5.3, -5.5, 3.2, -8.6, -1.9, -8.4, -7.0
> CCCOC(=O)Cc1c(O)c2ccccc2[nH]c1=O
 : -0.6, 1.9, -1.8, 5.4, -13.0, 3.2, 2.5, -0.3
> O=C(NCC(=O)N(Cc1ccco1)C(C(=O)NC1CCCC1)c1ccncc1)c1cccs1 (stereo not given)
 : -0.5, 1.5, -2.0, -0.9, -20.2, -3.7, -5.0, -9.3
> COc1ccccc1N(CC(=O)NC1CCCC1)C(=O)CCCC(=O)Nc1ccccn1
 : ., 0.9, -2.7, ., 6.5, -2.2, 5.5, .
> Cn1c(=O)nc2n(Cc3ccccc3)c3cccc(Cl)c3cc-2c1=O
 : 0.5, ., -6.9, -0.3, -7.7, 64.2*, -7.5, -2.5
> NC(=O)CSc1oc(-c2ccco2)nc1S(=O)(=O)c1ccc(Cl)cc1
 : 0.2, 4.8, -10.3, 1.9, -6.1, -2.7, -6.0, 5.5
> CCn1c(SCC(=O)Nc2ccc(Br)cn2)nnc1C1CC1
 : -0.7, -3.3, 11.8, -0.5, 4.4, 5.5, -12.7, -2.5
> O=C1CCCC/C1=C/Nc1ccc2c(c1)OCO2
 : -1.8, 3.6, -1.0, -2.5, 5.2, 2.4, 7.1, -1.3
> CCO/C=C1\N=C(c2ccc(F)cc2)OC1=O
 : -0.1, 11.5, 2.2, ., 0.4, -0.8, -3.1, -1.4
> O=C(c1c[nH]c(C(=O)C(Cl)(Cl)Cl)c1)c1ccc(F)cc1F
 : 0.5, 4.5, 1.0, -2.4, 1.0, 6.9, -3.6, -19.6
> CCOc1ccc(NC(=S)N(CC)Cc2ccccc2)cc1
 : -1.4, 4.6, 11.2, 1.9, -3.9, -2.8, ., 2.7
> O=C(O)C1CC(O)CN1C(=O)c1ccco1 (stereo not given)
 : -0.2, 0.6, -8.6, 2.8, -10.6, 0.4, 4.0, 3.1
> Cc1cccc(NC(=O)C2CCN(C(=O)N3CCOc4ccccc43)CC2)c1C
 : -0.1, 3.7, 1.7, -0.3, -2.6, 1.6, -4.2, -7.6
> COCCOC(=O)c1c(NC(=O)CN2CCCc3ccccc32)sc(C(N)=O)c1C
 : 0.8, 0.8, -0.1, 4.2, 9.7, -0.5, 0.0, -3.1
> O=C1CC(c2ccccc2)n2nc(N3C(=O)CCC3=O)nc2N1 (stereo not given)
 : 0.5, 1.1, 1.1, 3.7, 6.6, 5.6, 6.7, -1.4
